High-throughput results as filed in PubChem BioAssay.
Mtb H37Rv – Confirmatory growth inhibition assay against Mycobacterium tuberculosis H37Rv, potency (AID 1949) | 100,000 tested, 1.6% active | one-dose inhibition, % at 10 µg/mL; IC50 in µg/mL for titrated hits | most inactive calls were filed without a number and no value below 0 was filed;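 active = confirmed in a dose series; inconclusive = about 50% or more but not retested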;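 note: bacteria grown 7 days with compound before Alamar blue readout; 0% = untreated bacteria and 100% = reference antibiotic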
* = called active by the depositor; i = inactive; ? = inconclusive. The list is partial (hit frequency here may not be typical).

molecule	Mtb H37Rv
Cc1ccc(SCCNC(=O)c2ccc(CSc3ccccc3)cc2)cc1	i
O=C(O)C1C2C=CC(C2)C1C(=O)Nc1ccc(C(=O)N2CCCCC2)c(Cl)c1 (stereo not drawn)	10%
O=C1/C(=c2/sc3nc4ccccc4n3c2=O)c2cc(Br)ccc2N1Cc1ccccc1	i
CC(C)(C)C(=O)NC(=S)N1CCCc2ccccc21	i
O=C(CCN1C(=O)c2ccccc2S1(=O)=O)N1CCN(c2ccccc2)CC1	i
COc1ccccc1-n1c(C)nc2ccc(I)cc2c1=O	i
O=C(Oc1ccccc1OC(=O)N1CCCCC1)N1CCCCC1	i
CC(C)c1ccc(OCC(=O)Nc2ccc(S(=O)(=O)N(C)Cc3ccccc3)cc2)cc1	i
COc1ccc(-c2cc(C(=O)N3CCC(C)CC3)c3ccccc3n2)cc1OC	3%
CCCc1cc(=O)[nH]c(Sc2c(-c3ccccc3)c3cc(Cl)ccc3[nH]c2=O)n1	i
CCOc1ccc(NC(=S)N2CCN(c3ccccc3F)CC2)cc1	i
CC(C(=O)NCc1ccccc1Cl)N(c1ccc(Oc2ccccc2)cc1)S(C)(=O)=O (stereo not drawn)	i
N/C(=N\OC(=O)Cc1cccs1)c1cccnc1	3%
Cc1cccc(OCC(=O)N(C(C)C)C(C)C)c1	i
Cc1ccc(C)c(OCC(=O)Nc2ccc(C(=O)OC(C)C)cc2)c1C	3.8µg/mL*
COc1ccc(/C=C(\C#N)S(=O)(=O)c2ccccc2)cc1OCc1ccc(F)cc1	i
c1ccc(Cn2nnc3ccccc32)cc1	i
Cc1noc(C)c1C(=O)NC1CCCc2ccccc21 (stereo not drawn)	i
CC(=O)CSc1ncnc2scc(-c3ccc(F)cc3)c12	4%
Cc1cccc(NC(=S)NCCc2ccc(F)cc2)c1C	i
O=[N+]([O-])c1ccc(-c2[nH]c(-c3cccc(F)c3)nc2-c2ccccc2)cc1	2.6µg/mL*
CC(C)(C)OC(=O)CSc1nc(-c2ccccc2)ccc1C#N	2%
CCOC(=O)c1sc(NC(=O)CN2CCCCC2C)c(C(=O)OCC)c1C (stereo not drawn)	i
Cc1ccc(C(=O)Nc2cccc(Cl)c2Cl)cc1Cl	i
Cc1ccsc1C1CC(c2cccs2)=NN1C(=O)c1cccs1 (stereo not drawn)	i
CCOC(=O)c1c(NC(=O)c2ccc(C)c([N+](=O)[O-])c2)sc(C(=O)OC)c1C	i
COc1cccc2cc(C(=O)NCCO)c(=O)oc12	i
COc1cc(-c2nn3c(Cc4ccccc4)nnc3s2)cc(OC)c1OC	0%
COc1cc(C)ccc1OCCOCCN1CCCC(C)C1 (stereo not drawn)	i
CCc1cc(Br)ccc1NC(=O)CCCc1ccccc1	i
COc1ccc(C2(CNC(=O)Cc3ccccc3)CCCCC2)cc1OC	i
C#Cc1cccc(NC(=O)COc2ccc(C)cc2C)c1	8%
CSc1c(C)cccc1OCC(=O)Nc1ccc(C)cc1C	3%
CCOc1ccc(N(CC(=O)Nc2cccc(F)c2)S(=O)(=O)c2ccc(OC)c(OC)c2)cc1	i
NC(=O)C1CCN(C(=O)CSc2nc3ccccc3s2)CC1	i
O=C(NCc1cccnc1)c1cc(-c2ccccc2)on1	i
O=C1Nc2ccc(S(=O)(=O)Nc3ccc(Cl)cc3Cl)c3cccc1c23	i
Cc1cc(C)c(NS(=O)(=O)c2ccc(O)c(C(=O)O)c2)c(C)c1	i
Cc1ccc(S(N)(=O)=O)cc1NC(=O)c1ccc2c3c(cccc13)CC2	0%
COc1ccc(Cl)cc1NC(=O)CN(C)S(=O)(=O)c1ccc(Br)cc1	1%
COc1ccc(S(=O)(=O)Nc2ccc(C(F)(F)F)cc2)c(Cl)c1Cl	i
COC(=O)c1ccc(C(=O)OC)c(NC(=O)CSCc2ccc(Cl)cc2)c1	i
N#CCc1ccc(NS(=O)(=O)c2ccc(Br)cc2)cc1	i
Cn1c(Cc2cccs2)nnc1SCC(=O)Nc1ccccc1	0%
O=C(CN(C1CCCCC1)S(=O)(=O)c1ccc(Cl)cc1)NC1CCCCCC1	i
Cn1c(SCC(=O)Nc2ccc(F)cc2)nnc1-c1cccnc1	i
Cc1ccc(S(=O)(=O)N2CCC(C(=O)N3CCCC(C(F)(F)F)C3)CC2)cc1 (stereo not drawn)	i
Cc1cc(S(=O)(=O)NCc2cccnc2)ccc1F	i
CN(C)CCNC(=O)CC(c1ccccc1)c1ccccc1	i
COc1cc(C(=O)NC(=S)Nc2nc(-c3ccc(C)cc3)cs2)cc(OC)c1OC	4%
COc1ccc(S(=O)(=O)Nc2ccc(I)cc2)cc1C	i
CCc1ccc(C(=O)N2CCN(c3ccc([N+](=O)[O-])c(NCc4ccccc4)c3)CC2)cc1	i
CSc1ccccc1NC(=O)C1CN(S(=O)(=O)c2ccccc2)CCN1S(=O)(=O)c1ccccc1 (stereo not drawn)	1%
O=C(CNS(=O)(=O)c1cc(Cl)ccc1Cl)Nc1ccc(Oc2ccccc2)cc1	i
CCC(=O)Oc1ccc(/C=C2/C(=O)NN(c3ccc(C)c(Cl)c3)C2=O)cc1OC	i
FC(F)(F)c1cccc(-n2c(-c3ccccc3Br)n[nH]c2=S)c1	i
Cc1ccc(C(=O)Nc2ccc(N3CCN(Cc4ccccc4F)CC3)cc2)cc1Cl	1%
COCCNC(=O)C1CC(=O)N(C2CCCCC2)C1 (stereo not drawn)	i
Cc1cccc(C(=O)NC(C)CCc2ccccc2)c1[N+](=O)[O-] (stereo not drawn)	i
CCCCOc1ccc(NC(=O)C(=O)NCc2cccc(OC)c2)cc1	i

Next section:
molecule	Mtb H37Rv
CCOC(=O)c1c(NC(=O)COc2ccccc2C)sc(C(=O)N(CC)CC)c1C	12%
CCOc1ccc(S(=O)(=O)N2C(C)CCCC2C)c2ccccc12 (stereo not drawn)	2%
Cc1ccc(C(=O)CSc2ncn[nH]2)cc1C	i
CN(C)CCNC(=S)Nc1ccc([N+](=O)[O-])cc1	i
FC(F)(F)c1cccc(-c2noc(-c3ccc(Cl)cc3)n2)c1	i
CCN(CC)S(=O)(=O)c1ccc(OC)c(NC(=O)c2cccs2)c1	i
Cc1nn(C)cc1CNC(=O)c1cc(Br)cs1	i
COc1ccc(OC)c(N(CC(=O)N2CCN(c3cc(Cl)ccc3C)CC2)S(C)(=O)=O)c1	i
COc1ccc(Cl)cc1NC(=O)CN(Cc1cccc(Cl)c1)S(=O)(=O)c1ccc(C)cc1	4%
COc1ccc(C(=O)Nc2ccc(Cl)cc2C(=O)N2CC(C)OC(C)C2)cc1OC (stereo not drawn)	i
CC(C)CNC(=O)C(=O)NC1CCCC1	i
Cc1cc(C)c(C(N)=O)c(Nc2cccc(Cl)c2C)n1	i
NC(=O)Cn1cnc2sc(-c3ccccc3)cc2c1=O	42%
CCOC(=O)C(C)Oc1ccc2oc(C)c(C(=O)OC)c2c1 (stereo not drawn)	?
Cc1cc(C(=O)NCc2cccs2)c(C)o1	i
Cc1cccc(NC(=O)c2cc([N+](=O)[O-])ccc2NCCO)c1	i
COc1cc(-c2oc3ccc(Cl)cc3c(=O)c2O)cc(OC)c1OC	i
Cc1cccc(/C=C/C(=O)Nc2ncc(Cc3cccc(Cl)c3Cl)s2)c1	i
COC(=O)Cc1c(C)c2ccc(OCc3ccc(Cl)c(Cl)c3)cc2oc1=O	3%
CCCOc1ccc(N2CC(C(=O)Nc3cccc(C(F)(F)F)c3)CC2=O)cc1 (stereo not drawn)	1%

Continued; it opens with the two that closed the last part.
molecule	Mtb H37Rv
COC(=O)Cc1c(C)c2ccc(OCc3ccc(Cl)c(Cl)c3)cc2oc1=O	3%
CCCOc1ccc(N2CC(C(=O)Nc3cccc(C(F)(F)F)c3)CC2=O)cc1 (stereo not drawn)	1%
CCOC(=O)c1ccc(NC(=O)c2ccc(S(=O)(=O)c3ccccc3)cc2)cc1	1%
Cn1c(=O)c2c(nc(N3CCCCC3)n2CCN)n(C)c1=O	i
COCc1cc(C)nc2sc(C(=O)Nc3ccc(N4CCOCC4)cc3)c(N)c12	i
Cc1ccc(-n2c(Cc3ccccc3)nnc2SCC(=O)Nc2ccc(Cl)cc2)cc1C	i
CCCCOc1ccc(-c2cc(C(=O)O)c3ccccc3n2)cc1	13%
Cc1cccc(OCc2nnc(NC(=O)C(C)C)s2)c1C	i
O=C(c1cc2ccccc2oc1=O)N(Cc1ccc(F)cc1)Cc1ccco1	i
Cc1cc(C)cc(OCC(=O)Nc2cccc3cccnc23)c1	4%
CCC(=O)Nc1c(C(=O)N2CCCCCC2)cnn1-c1ccc(C)c(C)c1	i
COc1ccccc1NC(=O)CN(c1cc(Cl)ccc1OC)S(=O)(=O)c1ccc(C)cc1	i
O=C(COc1ccc(Cl)cc1Cl)Nc1ccc(O)cc1	i
CCOC(=O)C1CCN(C(=O)c2ccc(C#Cc3ccccc3)cc2)CC1	1%
COc1ccc(NC(=O)CSc2nnc(C)c(=O)[nH]2)cc1Cl	32%
COc1ccc(N2C(=O)C3C4c5ccccc5C(C(C)O)(c5ccccc54)C3C2=O)cc1 (stereo not drawn)	i
O=c1[nH]c(/C=C\c2ccc(OCc3ccccc3Cl)cc2)c([N+](=O)[O-])c(=O)[nH]1	i
CCn1c(SCC(=O)Nc2sc3c(c2C#N)CCCC3)nnc1-c1ccccc1Cl	i
CC(C)(C)Cc1nnc(NC(=O)CSc2ccccc2)s1	i
COc1ccc(S(=O)(=O)Nc2ccc(C)cc2C)cc1Br	i
CCn1c(CNC(=O)c2ccccc2F)n[nH]c1=S	i
CCC(C)NCCOc1ccc(Cl)cc1Br (stereo not drawn)	i

Another view of two compounds above.
> CCn1c(SCC(=O)Nc2sc3c(c2C#N)CCCC3)nnc1-c1ccccc1Cl
  Mtb H37Rv = i

> CC(C)(C)Cc1nnc(NC(=O)CSc2ccccc2)s1
  Mtb H37Rv = i

New compounds follow.
molecule	Mtb H37Rv
Cc1ccccc1OCC(=O)Nc1cccc([N+](=O)[O-])c1	i
CC(=O)Oc1ccc(N2C(=O)CC(Nc3ccc(N4CCOCC4)cc3)C2=O)cc1 (stereo not drawn)	i
CCCn1c(CNc2ccccc2O)nc2ccccc21	0.34µg/mL*
Cc1ccc(-c2nnc(-c3ccc4c(c3)OCO4)o2)cc1C	4%
C=CCn1c(COc2ccccc2)nnc1SCC(=O)c1cc(OC)ccc1OC	i
Cc1cc(C)cc(C(=O)NC(=S)Nc2cccnc2)c1	1%
O=C(O)c1cccc(NC(=O)c2cc(NC(=O)c3ccccc3)cc(NC(=O)c3ccccc3)c2)c1	1%
CCCc1cc2c(=O)c(-c3ccc4c(c3)OCCO4)coc2cc1OC(=O)CC	3%
Cc1cccc(OCC(=O)N2CCN(c3c(F)c(F)c(F)c(F)c3F)CC2)c1	i
CN(C)/C(=N\S(=O)(=O)c1ccc(Cl)cc1)c1ccc(F)cc1	i
COc1ccc(CSc2nnc(SCC(=O)Nc3ccc4cn[nH]c4c3)s2)cc1	i
CC(C)(C)c1nc2scc(-c3cccs3)c2c(=O)o1	i
CN1CCN(CCSc2ccc(Cl)cc2)CC1	i
S=C(NCc1ccc2c(c1)OCO2)NC1CC1	i
CC1(C)OC(=O)CC1C(=O)NCCc1ccccc1 (stereo not drawn)	i
Cc1ccc(S(=O)(=O)N(CC(=O)NCc2ccco2)c2cccc(Br)c2)cc1	i
CCC(=O)c1ccc(OCC(=O)NC23CC4CC(CC(C4)C2)C3)cc1	i
Fc1ccccc1NC(=S)NCc1cccnc1	i
COc1ccc(Cl)cc1NC(=O)NCCN1CCCCC1	i
Cc1ccc2nc(-c3ccc(NC(=O)c4ccc(C)o4)cc3)sc2c1	i
Cc1c(NC(=O)C2COc3ccccc3O2)c(=O)n(-c2ccccc2)n1C (stereo not drawn)	i
CCC(C)c1ccccc1OCCCCNCCN (stereo not drawn)	i
Cc1cc(C)n(CC(O)CN(c2cccc([N+](=O)[O-])c2)S(=O)(=O)c2ccccc2)n1 (stereo not drawn)	2%
O=C(Cc1ccc(Cl)cc1)NCCc1ccc(F)cc1	i
COC(=O)N1N=C2CCCCC2C1(O)C(F)(F)F (stereo not drawn)	i
CCC(C)c1ccc(NC(=S)Nc2ccc3c(c2)OCCO3)cc1 (stereo not drawn)	i
Cc1cc(NC(=O)c2ccccc2C)c(C)cc1I	i
CCc1nc(SCC(=O)Nc2ccccc2C)n[nH]1	i
O=C(Nc1ccc(OC(F)F)cc1)c1ccc(Br)o1	31%
CCC(C)c1ccccc1OCCOCCN1CCCC1 (stereo not drawn)	i
Cc1ccc(C(=O)Nc2ccc3oc(-c4ccccc4C)nc3c2)c(Cl)c1	4%
CC(=O)Nc1nc(CC(C)C)cc(-c2ccco2)c1C#N	i
COC(=O)Cn1cc(C(=O)OC)c2ccccc21	i
CCOc1ccc(S(=O)(=O)Nc2cc(C)cc(C)c2)cc1	i
O=Cc1cn(CC(=O)O)c2ccc(Br)cc12	i
CC(C)(Oc1ccc(Cl)cc1)C(=O)Nc1nnc(-c2ccccc2)s1	i

5 records drawn at random from the list so far:
molecule	Mtb H37Rv
COC(=O)Cn1cc(C(=O)OC)c2ccccc21	i
CC(C)(Oc1ccc(Cl)cc1)C(=O)Nc1nnc(-c2ccccc2)s1	i
CCOc1ccc(S(=O)(=O)Nc2cc(C)cc(C)c2)cc1	i
COC(=O)N1N=C2CCCCC2C1(O)C(F)(F)F (stereo not drawn)	i
CCC(C)c1ccc(NC(=S)Nc2ccc3c(c2)OCCO3)cc1 (stereo not drawn)	i
